Vaccinia mCherry: vaccinia inhibition (mCherry reporter); Vaccinia virus mCherry reporter infection, fluorescence; about a quarter of the inactives have no number; Potency, µM (highest dose often 36.5 µM), without a hit: at the top dose activity change, negative = inhibition, most hits filed as inhibitors; actives 0.63% (n = 310,000); active = well fitted inhibition curve with a large enough effect; inconclusive = small, poorly fitted or top-dose-only effect; inactive = no such curve, though single readings can be large or run the other way; tested in A549 cells; note: nearly all actives have a fitted effect of over 35% in size; inactives centre near -10
VACV Venus inh: vaccinia inhibition (Venus reporter) | Potency, µM (titrated, usually from 36.5 µM), for inactives: at the highest dose activity change, negative = inhibition, most hits filed as inhibitors | actives 0.46% (n = 330,000) | Vaccinia virus Venus reporter expression, fluorescence; active means well fitted inhibition curve with a large enough effect; inconclusive means small, poorly fitted or top-dose-only effect; inactive means no such curve, though single readings can be large or run the other way; tested in A549 cells; note: nearly all actives have a fitted effect of over 30% in size; inactives centre near -10
* marks the source's active call; other numbers are inactive results; i = inactive; ? = inconclusive; · = no result given; & = joins results of further samples; [ ] = remark or other dose. % is set by controls: 0 for no effect and ±100 for the full control effect; potency is the fitted concentration of half-maximal effect.

Every second line gives: Vaccinia mCherry | VACV Venus inh
1) O=C(Cc1ccccc1)NCCS(=O)(=O)N1CCN(c2cccc(Cl)c2)CC1
  -16% | -7%
2) COc1ccc(N=C2NC(=O)/C(=C/C=C/c3ccccc3)S2)cc1
  -17% | -12%
3) Cc1ccccc1C(=O)NNC(=O)c1ccc(Br)cc1
  -9% | -18%
4) COc1cccc2c1OC1(C)CC2NC(=O)N1c1cccc(C(=O)N2CCN(c3ccccn3)CC2)c1 (stereo not given)
  i | -16%
5) CCCCN(C(=O)c1ccc(N2CCCC2=O)cc1)c1c(N)n(CCCC)c(=O)[nH]c1=O
  i | -13%
6) O=S1(=O)C=CC(N2CCOCC2)C1 (stereo not given)
  · | -12%
7) CCCc1nc2ccccc2n1C(C)C(=O)NC(C)(C)C (stereo not given)
  2% | -8%
8) Cc1cc(C)c(C(=O)/C=C/c2ccc(C(C)C)cc2)c(=O)[nH]1
  5µM* | ?
9) Cc1nc2ccc(S(=O)(=O)N(C)CC(=O)NC(C)c3ccccc3)cc2s1 (stereo not given)
  i | -17%
10) CN(C)S(=O)(=O)c1ccc(C(=O)NCCSc2ccc(Br)cc2)cc1
  ? | ?
11) CCCCCCC[n+]1ccc(/C=C/c2c[nH]c3ccccc23)cc1
  -24% | 60%[activator]
12) CN(Cc1cn(Cc2ccc(Cl)cc2)nn1)C1CN(Cc2cn(Cc3ccc(Cl)cc3)nn2)S(=O)(=O)C1 (stereo not given)
  -15% | -10%
13) COc1ccc(NC(=O)N2CCN(S(=O)(=O)c3ccc(F)cc3)CC2)c(OC)c1
  i | -6%
14) C/C(=N/OC(=O)c1ccc(Cl)cc1Cl)c1oc(C)nc1C
  i | 3%
15) CC(C)(C)NC(=O)CSc1nc2ccccc2c(=O)[nH]1
  4% | -15%
16) COc1ccc(CCNC2=NCCS2)cc1
  -2% | 11%
17) COc1ccccc1-c1sc2cc3c(cc2c1-c1ccc(OCCN2CCCCC2)cc1)OCO3
  28µM* | 11µM*
18) CC(C)c1ccc(S(=O)(=O)N2CCN(C(=O)c3ccco3)CC2)cc1
  -13% | -24%
19) CCOC(=O)c1oc2ccccc2c1NC(=O)CN1CCOCC1
  -14% | -7%
20) COC(=O)CCC(=O)OC1(C)C(=O)C=C2C=C(C3CC3)N(C(CO)CO)C=C2C1=O (stereo not given)
  -8% | -13%
21) O=C(CSc1nncc2ccccc12)Nc1ccc(F)cc1
  -9% | -17%
22) Cc1cccc(NC(=O)Cn2nnc(C(=O)Nc3ccccc3Br)c2N)c1C
  i | -4%
23) CCCCn1c(NCc2ccccc2O)nc2ccccc21
  -20% | -21%
24) CCOc1ccc(C(=O)CN2CCN(S(=O)(=O)c3ccc(F)cc3)CC2)cc1
  -1% | 0%
25) CC(=O)N1CCCc2cc(S(=O)(=O)N3CCC(C(=O)NCc4ccccc4Cl)CC3)ccc21
  -8% | -3%
26) CC1(C)[C@H]2CC=C(CN3CCC(N4CCC(C(=O)N5CCCC5)CC4)CC3)[C@@H]1C2
  ? | -16%
27) Fc1cc(F)cc(NC(=S)Nc2ccccc2N2CCOCC2)c1
  -19% | -9%
28) CC(OC(=O)c1cc2sccc2n1C)C(=O)NCCc1ccccc1 (stereo not given)
  -26% | -20%
29) O=C(O)c1ccc(S(=O)(=O)Nc2ccc(F)c(Cl)c2)cc1
  · | 13%
30) Cc1ccc(C)c(NC(=O)c2cc([N+](=O)[O-])cc([N+](=O)[O-])c2)c1
  -12% | -10%

Quoted at random: 5 records from the list, in no set order.
Every second line gives: Vaccinia mCherry | VACV Venus inh
1) O=C(Cc1ccccc1)NCCS(=O)(=O)N1CCN(c2cccc(Cl)c2)CC1
  -16% | -7%
16) COc1ccc(CCNC2=NCCS2)cc1
  -2% | 11%
15) CC(C)(C)NC(=O)CSc1nc2ccccc2c(=O)[nH]1
  4% | -15%
27) Fc1cc(F)cc(NC(=S)Nc2ccccc2N2CCOCC2)c1
  -19% | -9%
9) Cc1nc2ccc(S(=O)(=O)N(C)CC(=O)NC(C)c3ccccc3)cc2s1 (stereo not given)
  i | -17%

Values by screen from the list:
Compounds 20 to 30 in Vaccinia mCherry read -8%, -9%, i, -20%, -1%, -8%, ?, -19%, -26%, ·, -12%
Compounds 20 to 30 in VACV Venus inh read -13%, -17%, -4%, -21%, 0%, -3%, -16%, -9%, -20%, 13%, -10%

(more compounds)
Every second line gives: Vaccinia mCherry | VACV Venus inh
31) CCN(CCO)CCCC(C)Nc1ccnc2cc(Cl)ccc12 (stereo not given)
  -8% | -2%
32) CCN(CC)S(=O)(=O)c1ccc(NC(=O)c2c(C)oc3ncnc(N4CCOCC4)c23)cc1
  i | -17%
33) CSc1ccc(CN2CCN(C(=O)CC(C)C)CC2)cc1
  i | -12%
34) CCCCCOC(=O)CCN1C(=O)/C(=C2\SC(=S)N(CCC(=O)OCCCCC)C2=O)SC1=S
  -4% | 13%
35) CC(=O)Oc1ccc(OC(C)=O)c2c1CC(C)=C(C)C2
  ? | -14%
36) OC[C@@H]1CN(Cc2ccc(-c3ccccc3)cc2)C[C@H](n2cnc3c(N4CCCC4)ncnc32)O1
  10% | -1%
37) C/C=C\C(=O)Nc1cccc(C2=NOC3(C2)C[C@@H](C(N)=O)N(C(=O)COc2ccc(Cl)cc2)C3)c1 (stereo not given in full)
  0% | -1%
38) CCCCOc1ccc(S(=O)(=O)NC(=O)C2(C)CCN2C(=O)Cc2cccs2)cc1 (stereo not given)
  6% | 1%
39) O=C(c1cc2ccccc2oc1=O)N1CCCC1
  -10% | -7%
40) Cc1ccc(OC(=O)N(C)C[C@@H]2OCc3cnnn3CCCC(=O)N([C@@H](C)CO)C[C@@H]2C)cc1
  -5% | -5%
41) Cc1ccc(S(=O)(=O)N2CCN(c3nc(-n4ccnn4)nc4ccccc34)CC2)cc1
  -12% | -10%
42) CCCCn1c(=O)c2oc3ccccc3c2n(CC(=O)Nc2ccc(CC)cc2)c1=O
  -24% | ?
43) Cc1ccc(C(=O)NNC(=O)c2ccccc2-n2cccc2)cc1
  i | -5%
44) Cc1ccc(NC(=O)c2cc(N3C(=O)C4CC=CCC4C3=O)ccc2N2CCOCC2)cc1Cl (stereo not given)
  · | -22%
45) O=C(c1ccccc1)c1ccc(COC(=O)c2cnccn2)cc1
  2% | -1%
46) COc1ccc2c(c1)[nH]c1c(=O)n(CCCN3CCOCC3)cnc12
  -11%[1.46 µM] | -21%
47) O=C(N[C@@H](Cc1c[nH]c2ccccc12)C(=O)O)c1ccc(Cl)cc1
  i | -14%
48) COc1cccc(CNC(=O)C(C)n2c(=O)cc(-c3ccccc3)c3c(C)nn(C)c32)c1 (stereo not given)
  2% | 12%
49) Cc1ccc(NC(=O)CC2C(=O)NCCN2C(=S)Nc2ccccc2)c(C)c1 (stereo not given)
  -7% | -21%
50) CN(CC(=O)Nc1ccc(N2CCOCC2)cc1)CC(=O)Nc1ccccc1C#N
  i | -4%
51) CCOC(=O)c1sc(NC(=O)c2ccoc2C)c(C(N)=O)c1C
  ? | -18%
52) CCOc1ccc(OCC)c(NC(=O)c2cc(-c3cccs3)nc3ccccc23)c1
  -10% | -13%
53) COc1ccc(C)cc1NC(=O)CN1C(=O)CSc2ccc(S(=O)(=O)N3CCCC3)cc21
  -5% | -9%&-8%
54) CCOC(=O)C(=O)Nc1ccc(F)cc1
  · | -9%
55) CCOC(=O)c1c(-c2ccccc2)nnn1-c1nc(OCC)nc(N2CCCCC2)n1
  -18% | -29%
56) CCCNC(=O)CCn1nc(-c2ccc(C)cc2)c2ccccc2c1=O
  -24% | -17%
57) C1=Cc2ccccc2/C1=C\c1ccc(/C=C2\C=Cc3ccccc32)cc1
  i | -7%
58) O=C(CSc1nnc2ccc(-c3ccc(F)cc3)nn12)N1CCOCC1
  ? | -25%
59) Cc1ccccc1S(=O)(=O)Cc1ccc(C(=O)N2CCN(c3cccc(C)c3C)CC2)o1
  -28% | ?
60) O=C(NCCCNC(=O)c1ccccc1)c1ccccc1
  i[7.34 µM] | -3%[7.34 µM]

Compound profiles (already shown). Values in the order: Vaccinia mCherry | VACV Venus inh
`Cc1ccc(NC(=O)CC2C(=O)NCCN2C(=S)Nc2ccccc2)c(C)c1` (stereo not given) in the list: -7% | -21%
`O=C(NCCCNC(=O)c1ccccc1)c1ccccc1` in the list: i[7.34 µM] | -3%[7.34 µM]

Next part:
Every second line gives: Vaccinia mCherry | VACV Venus inh
61) COc1ccc([N+](=O)[O-])cc1N(CC(=O)Nc1ccccc1C(=O)N1CCCC1)S(C)(=O)=O
  -5% | -3%
62) O=C(C1CCN(S(=O)(=O)N2CCC3(CC2)OCCO3)CC1)N1CCc2ccccc2C1
  -2% | -10%
63) Cc1ccc(S(=O)(=O)N2CCN(C(=O)CCC(=O)NCc3ccc(F)cc3)CC2)cc1
  -4% | 6%
64) Cc1cc(C)n(Cc2n[nH]c(=S)n2Cc2ccccc2)n1
  · | ?
65) Cc1nnc(SCCN2C(=O)c3ccccc3C2=O)nc1C
  i | -8%
66) CCc1cccc(CC)c1NC(=S)Nc1ccccc1
  i | -13%
67) COc1ccc(NC(=O)CN(c2ccc(C)cc2)S(=O)(=O)c2cccs2)cc1OC
  -19% | -10%
68) O=C(Nc1ccc2c(c1)OCCO2)c1cncc(Br)c1
  -11% | -12%
69) CCOc1ccc(NC(=O)CN2C(=O)C(c3ccc(Cl)cc3)=NC2(C)C)cc1
  -7%[7.34 µM] | -7%[7.34 µM]
70) C1=C\CCC2(OCCO2)C2(CC/1)OCCO2
  i | 2%
71) Cc1nn(C)c(C)c1NC(=O)c1ccc(Br)o1
  -4% | -15%
72) Cc1cc(C)nc(S[C@@H]2C[C@@H](C(=O)N3CCCN(C)CC3)N(Cc3cc(F)ccc3F)C2)n1
  -13% | -6%
73) COc1cccc(C2=NOC(C(=O)NCc3ccco3)C2)c1 (stereo not given)
  -12% | -24%
74) COc1ccc(-c2ccc(C(=O)Nc3cccc(NS(C)(=O)=O)c3)c3occc23)c(C)c1
  -6% | -21%
75) O=C(c1ccccc1)c1cc([N+](=O)[O-])ccc1N1CCCC1
  ? | -23%
76) CCOC(=O)c1[nH]c2ccc(OC)cc2c1NC(=O)N1CCOCC1
  · | 1%
77) COc1ccccc1Nc1nc(NCC(C)C)nc(N)c1[N+](=O)[O-]
  -6%[7.34 µM] | ?
78) CNC[C@H]1OCCCC[C@H](C)Oc2ccc(NC(=O)CCCN(C)C)cc2C(=O)N([C@H](C)CO)C[C@@H]1C
  ? | 9%
79) Cc1cc2ncn(-c3ncccc3[N+](=O)[O-])c2cc1C
  -14% | -9%
80) COc1ccc(C(C(=O)NCc2ccccc2)N(C(=O)Cn2nnc3ccccc32)c2ccc(OC)cc2)cc1 (stereo not given)
  -12% | -10%
81) O=C(c1cc(-c2ccc(Br)cc2)n[nH]1)N1CCN(S(=O)(=O)c2ccc(Cl)s2)CC1
  ? | -29%
82) CC1(C(=O)NS(=O)(=O)c2cccc(Cl)c2)CCN1C(=O)COc1ccc(Cl)cc1 (stereo not given)
  40%[activator] | 2%
83) O=C(O)c1ccc(-n2c(O)c(/C=C3\C=Nc4ccccc43)c(=O)[nH]c2=O)cc1
  -5% | 2%
84) Cc1cccc(C)c1NC(=S)N(Cc1ccccc1)Cc1cccnc1
  -10% | -17%
85) COC(=O)c1cc(=O)nc2sccn12
  i | -5%
86) Cc1nn(Cc2c(F)c(F)c(F)c(F)c2F)c(C)c1NC(=O)c1c(-c2ccccc2)nn(-c2ccccc2)c1C
  i | -21%
87) CCOC(=O)C(CC)Sc1ccc2nnc(CCNS(=O)(=O)c3ccc(C)cc3)n2n1 (stereo not given)
  -11% | -6%
88) CC1(C)Cc2c(C#N)c(SCCOc3ccccc3)nc(N3CCOCC3)c2CO1
  -14% | -14%
89) COc1ccc(S(=O)(=O)N2CCOCC2)cc1NC(=O)Cc1c(Cl)cccc1Cl
  -18% | -7%
90) COc1cc(CC(NC(C)=O)C(=O)NC2CCN(C(=O)Nc3ccccc3C)CC2)cc(OC)c1 (stereo not given)
  -15% | -6%

Reprinted, entries 89 to 90
Every second line gives: Vaccinia mCherry | VACV Venus inh
89) COc1ccc(S(=O)(=O)N2CCOCC2)cc1NC(=O)Cc1c(Cl)cccc1Cl
  -18% | -7%
90) COc1cc(CC(NC(C)=O)C(=O)NC2CCN(C(=O)Nc3ccccc3C)CC2)cc(OC)c1 (stereo not given)
  -15% | -6%

Further records follow.
Every second line gives: Vaccinia mCherry | VACV Venus inh
91) Cc1cccc(C)c1NC(=O)COc1cccc(/C=N/NC(=O)C(=O)NCc2ccccc2)c1
  · | -13%
92) CCN(CC)c1ccc(N=Cc2c(C)[nH]c3ccccc23)cc1
  7% | 1%
93) c1ccc(-n2nnnc2SCCCSc2nc3ccccc3s2)cc1
  i | -11%
94) Cc1cccc(OC(C)C(=O)Nc2nc(-c3ccncc3)cs2)c1 (stereo not given)
  ? | -24%
95) CCCSc1nc2c(cnn2-c2ccc(C)c(C)c2)c(=O)[nH]1
  -11% | ?
96) COc1ccc(/C=N/NC(=S)Nc2ccccc2)cc1
  -12% | -2%
97) CCN(CC)c1ccc(C(=O)OCC(=O)Nc2ccc3[nH]c(=O)[nH]c3c2)cc1
  i | -11%
98) COc1cccc(C(=O)CC(=O)C(=O)Nc2cc(OC)ccc2OC)c1
  ? | -2%
99) Cc1ccc(SCC(=O)Nc2ccc3oc(-c4cccc(C)c4)nc3c2)cc1
  -16% | -22%
100) CN(c1ccc(C(=O)Nc2ccccc2C(=O)N2CCCC2)cc1)S(C)(=O)=O
  · | -11%
101) COc1ccc(-c2cc(C(=O)N(C)CC(=O)Nc3cccc(F)c3)c3ccccc3n2)cc1OC
  i | -27%

Screening results as filed in PubChem.
